# Assay outcomes deposited in PubChem by National Center for Advancing Translational Sciences (NCATS).
# HTT prom inh: inhibits huntingtin promoter activity | Potency, µM (highest dose often 57.5 µM), without a hit: top-dose activity change, negative = inhibition, usual class: inhibitors | hit rate 0.93% among 48,000 | HEK293 HTT promoter firefly luciferase reporter (activity 0% = vehicle and -100% = no light), 24 h; active = well fitted inhibition curve with a large enough effect; inconclusive = small, poorly fitted or top-dose-only effect; inactive = no such curve, though single readings can be large or run the other way; also: nearly all actives have a fitted effect of over 50% in size
#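 HEK293 luciferase promoter-reporter cells (2,500/well) plated 24 h, then compounds added at up to 57.5 uM final for 24 h at 37 °C. Firefly luminescence by Dual-Glo, normalized to vehicle (0%) and zero RLU (-100%).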
# PMP22 txn prim: modulates PMP22 transcription in S16 Schwann cells; hit rate 2% among 43,000; S16 Pmp22-F2sN Schwann cells (luciferase reporters placed in the Pmp22 gene), FLuc/NLuc coincidence luminescence, 24 h; Potency, µM (top dose mostly 57.5 µM), without a hit: at the top dose activity change, negative = inhibition, usual class: inhibitors; active = clear falling dose curves in both reporters; inconclusive = both reporters move, but less clearly or upward; inactive = either reporter flat; the % is the NLuc reporter signal; also: % is scaled to controls: 0 for no effect and ±100 for the full control effect; some results filed as inactive show a strong effect at the top dose
#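 S16(c9) Schwann cells with FLuc/NLuc coincidence reporter in the Pmp22 3' UTR; compounds pin-transferred, 24 h at 37C. Dual-luciferase read: FLuc first, then NLuc after Stop&Glo, each 10 min at room temperature.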
# Starred values were filed as active, the others as inactive; ? = inconclusive; · = not tested or not shown; [ ] = dose if it differs, or a comment. Potency is read from the fitted curve at half-maximal effect. Rows were taken by chance (roughly 2.4% active in at least one column).
Compound	HTT prom inh	PMP22 txn prim
CCCCn1c(=N)c(S(=O)(=O)c2ccc(Cl)cc2)cc2c(=O)n3cccc(C)c3nc21	-3%	?
CCc1nn2c(=O)cc(COC(=O)c3ccccc3NC(=O)C3CCCCC3)nc2s1	-6%	3%
COC(=O)Cn1c(=O)c2cccn2c2ccc(F)cc21	-9%	-18%
COC(=O)c1ccc(NC(=O)CN2CCCN(Cc3ccc(Cl)cc3)S2(=O)=O)cc1	-23%	?
Cc1ccccc1NC(=O)c1sc2nc3n(c(=O)c2c1C)CCC3	102%[activator]	2%
COc1ccc(Cn2ccn(Cc3cccc(C)c3)c(=O)c2=O)cc1	-18%	-17%
CCOC(=O)c1c(-c2ccc(OC)cc2)oc2ccc(OCc3ccc(C(=O)OC)cc3)cc12	-18%	-10%
COc1ccc(-c2cc(C(F)(F)F)n3nc(C(=O)Nc4cc(C)ccc4C)cc3n2)cc1	-17%[11.5 µM]	-8%
Cc1ccc(Cn2nnc(C(=O)Nc3ccc(F)c(F)c3)c2N)cc1	-17%	3%
CCn1c2c(c(=O)n3ncc(C(=O)Nc4ccc(OC(F)(F)F)cc4)c13)CN(Cc1ccc(OC)cc1)CC2	-17%	-1%
CCCCNC(=O)CCCn1c(=O)c2ccccc2n(CC(=O)Nc2ccccc2OCC)c1=O	-4%	-12%
CCc1ccc(OC(C)C(=O)N2CCC(c3nc4ccccc4o3)CC2)cc1 (stereo not drawn)	?	?
CCOc1ccc(NC(=O)CCC(=O)N2CCSc3ccccc32)cc1	-16%	?
COc1ccc(CNC(=O)C2CCN(S(=O)(=O)c3c(C)noc3/C=C/c3cccs3)CC2)cc1	-19%	-36%
COc1ccccc1CNC(=O)C1CCN(S(=O)(=O)c2cn(C)cn2)CC1	-21%	11%
CCN1CCN(c2csc3ccc(F)cc3c2=O)CC1	6%	?
O=C(CCS(=O)(=O)c1cccs1)Nc1ccc(C(=O)Nc2cccc(Cl)c2)cc1	-3%	17%
COc1ccc(C2=Nn3c(nc4sc(C(=O)Nc5cccc(C)c5)c(C)c4c3=O)SC2)cc1	-22%	-45%
Cc1ccc(-c2ccc(=O)n(Cc3ccc(F)cc3)n2)cc1	?	-11%
CCOc1ccc(N2CC(NC(=O)C3CCCC3)CC2=O)cc1 (stereo not drawn)	10%	16%

# The list goes on:
Compound	HTT prom inh	PMP22 txn prim
Cc1nc2nc(SCC(=O)NC(C)c3ccccc3)nn2c(C)c1Cc1c(F)cccc1Cl (stereo not drawn)	-27%	41%
Cc1ccc(Cn2c(CNC(=O)c3ccccc3Br)nc3cccnc32)cc1	-12%	2%
COc1ccc(CNC(=O)CSCc2cnn(-c3ccccc3)c2-n2cccc2)cc1OC	?	?
Cc1ccc2nc(-c3cccnc3)c(Nc3ccccc3C)n2c1	?	4%
CCCc1cc(N2CCN(c3cccc(C)c3C)CC2)n2cnnc2n1	?	-11%
CCc1ccc(CN(Cc2cn[nH]c2-c2ccc(OC)cc2)C(=O)Nc2ccc(C)c(F)c2)cc1	?	?
O=C(Nc1cccc(-c2nc3ccccc3o2)c1)C(F)(F)F	?	8µM*
Cc1cc2ccccc2n1CCNC(=O)c1ccc(Br)cc1	-18%	-19%
Cn1c(=O)[nH]c(=O)c2c1nc1n2CCN1c1ccccc1	2%	-4%
Cc1ccc(C)c(N2C(=O)N(Cc3cc(=O)n4ccccc4n3)c3ccccc3S2(=O)=O)c1	?	?
Cc1oc(-c2cccc(Cl)c2)nc1CN1CCCC(C(=O)N2CCN(c3ccc(F)cc3)CC2)C1 (stereo not drawn)	?	?
O=C(CCCCCn1c(=O)[nH]c2ccccc2c1=O)NCc1ccccc1	5%	-3%
COc1ccccc1C(=O)Nc1nc2nc(-c3ccccc3)cc(=O)n2[nH]1	-14%	-34%
CCOC(=O)c1ccc(NC(=O)c2c(NCc3ccc(OC)c(OC)c3OC)sc3c2CCC(C)C3)cc1 (stereo not drawn)	-20%	?
CCOC(=O)c1c(C)oc2nc(C)nc(NCC3CCN(Cc4ccccc4C)CC3)c12	9%	6%
CC(C)(C)C1CCc2nc(NC(=O)COc3ccccc3[N+](=O)[O-])sc2C1 (stereo not drawn)	4.5µM*	?
Cc1sc2ncn(CC(=O)Nc3ccc(F)cc3Cl)c(=O)c2c1S(=O)(=O)N1CCN(c2ncccn2)CC1	-11%	-1%
O=C(NCCc1ccccc1)c1ccc2nc(CCc3ccccc3)oc2c1	23%	-10%
COc1ccc(CNCCC(c2ccccc2)c2ccc3c(c2)OCO3)cc1 (stereo not drawn)	?	?
COc1cccc(N2CCN(C(=O)c3cnc4c(C)cccn4c3=O)CC2)c1	7%	-35%

# Full records, looked up by structure.
# `O=C(CCCCCn1c(=O)[nH]c2ccccc2c1=O)NCc1ccccc1` is listed with HTT prom inh: 5%; PMP22 txn prim: -3%
# `CC(C)(C)C1CCc2nc(NC(=O)COc3ccccc3[N+](=O)[O-])sc2C1` (stereo not drawn) is listed with HTT prom inh: 4.5µM*; PMP22 txn prim: ?

# The results go on.
Compound	HTT prom inh	PMP22 txn prim
Cc1ccc(S(=O)(=O)CCC(=O)N2CCN(c3nc4c(C)c(Cl)ccc4s3)CC2)cc1	-25%	-40%
Cc1cccc(NC(=O)c2sc3ncnc(N(C)C4CCCCC4)c3c2C)c1C	1%	?
Cc1ccc(C)c(S(=O)(=O)c2cn(Cc3ccccc3)c3cc(N4CCCC4)c(F)cc3c2=O)c1	-29%	-12%
COc1cccc(NC(=O)CSc2nccn2C2CCCC2)c1	12%	0%
COc1ccc(Cn2ccc3nc(C)c(C(=O)Nc4ccc(OC)cc4OC)cc3c2=O)cc1	2%	3%
Cc1ccc(NC(=O)c2oc3ccccc3c2NC(=O)c2ccccc2C)cc1	-4%	-15%
CC(C)Cn1c(=O)c2ccccc2n2c(CCC(=O)NCc3ccccc3Cl)nnc12	-3%	-3%
O=C(COc1ccccc1[N+](=O)[O-])N(Cc1ccco1)c1ccccn1	2%	-26%
CCCSc1nnc2[nH]c(=O)cc(C)n12	-3%	8%
COC(=O)CSc1nc2sc3c(c2c(=O)n1-c1ccccc1C)CC(C)(C)OC3	1%	-1%
Cc1cc2c(OCC(CNC(C)(C)C)OC(=O)c3ccccc3)cccc2[nH]1 (stereo not drawn)	-8%	·
Cc1ccc(C2CCN(C(=O)c3cnn(-c4cccc(Cl)c4)c3C3CCN(C(=O)OC(C)(C)C)CC3)C2)cc1 (stereo not drawn)	?	?
O=C1N(Cc2ccccc2)c2ccc(Cl)cc2C1(O)c1c[nH]c2ccccc12 (stereo not drawn)	-9%	?
CCOc1ccc(-n2cc(-c3ccccc3)c3c(N4CCN(c5ccccc5OC)CC4)ncnc32)cc1	-12%	-12%
COc1cccc(NC(=O)c2ccc(-c3nc(COc4ccc(C)cc4)c(C)o3)cc2)c1	?	-5%
O=C(Cn1cnc2onc(-c3ccc(F)cc3)c2c1=O)N1CCN(c2ccccc2F)CC1	-22%	-18%
Cc1ccc(NC(=O)Cc2coc3c(C)c(C)ccc23)c(C)c1	-4%	-4%
Cc1ccc(OCC(=O)N(Cc2ccc(Cl)cc2)CC2CCCO2)cc1C (stereo not drawn)	?	-41%
COc1ccc(CCNC(=O)Cn2c(-c3ccc(F)cc3)cc(C(C)=O)c2C)cc1OC	-24%	?
COc1ccc(CCNc2nc(SCc3ccc(Cl)cc3)nc3ccccc23)cc1OC	-4%	?

# Remaining list, next part
Compound	HTT prom inh	PMP22 txn prim
CCCCn1cc(S(=O)(=O)c2ccc(C)cc2)c(=O)c2cc(F)c(N3CCCCC3)cc21	-2%	?
CC(CNC(=O)c1ccc2nc(Cc3ccccc3)oc2c1)c1ccccc1 (stereo not drawn)	-31%	-9%
O=C(Cc1ccc(F)cc1)NCCc1csc2nc(-c3ccc(Cl)cc3)nn12	?	-2%
Cc1ccc(NC(=O)CSCc2cc(=O)c3ccccc3[nH]2)c(C)c1	-27%	1%
CCCCc1ccc(NC(=O)c2ccc3c(c2)CCN3S(=O)(=O)CC)cc1	22µM*	?
COc1ccc(NC(=O)c2cc(=O)c3cc(C)cc(C)c3o2)cc1	5%[11.5 µM]	-12%
COc1ccc(Cl)cc1NC(=O)CCn1nc(C)cc1C	0%	12%
O=C1NC(NS(=O)(=O)c2ccccc2)(C(F)(F)F)C(=O)N1CCc1ccccc1 (stereo not drawn)	-18%	26%
COc1ccc(Nc2ncnc3c2cnn3-c2ccc(C)cc2C)cc1	24%	?
Cc1cc(C)c(NC(=O)CSC2=Nc3ccccc3C3=NC(CC(=O)NCc4cccs4)C(=O)N23)c(C)c1 (stereo not drawn)	-12%	-8%
CCc1cccc(NC(=O)CCS(=O)(=O)c2ccc3nc(C)sc3c2)c1	-11%	-7%
Cc1ccc(-c2onc(C)c2C)cc1S(=O)(=O)N1CCc2ccccc21	?	?
CC(=O)c1[nH]c(C)c(C(=O)NCCc2ccc(C)cc2)c1C	-2%	-7%
Cc1nc(-c2ccc(S(=O)(=O)N3CCN(c4cc(Cl)ccc4C)CC3)cc2)co1	-15%	-8%
CCNC(=O)C1CCN(c2nnc(C)c3c(C)n(-c4ccc(OC)cc4)nc23)CC1	-2%	?
Cc1ccc(CCNC(=O)CCn2nc(-c3ccc(Cl)cc3)ccc2=O)cc1	-19%	-29%
Cc1ccc(NC(=O)c2nc(S(C)(=O)=O)ncc2N(Cc2ccco2)Cc2cccs2)c(C)c1	-35%	?
CC1CN(C(=O)CCC(=O)Nc2cc(F)ccc2F)c2ccccc2S1 (stereo not drawn)	-22%	-7%
COc1cccc(-c2cc(C(F)(F)F)n3ncc(C(=O)OC(C)C)c3n2)c1	-7%	-3%
Cc1nc2c(-c3ccccc3)c(C)nn2c(C)c1CCC(=O)NCCc1ccccc1	-31%	-20%

# (listing goes on)
Compound	HTT prom inh	PMP22 txn prim
O=C(NCCn1cc(SCc2ccccc2Cl)c2ccccc21)c1cccs1	?	?
COc1cccc(CNCCSc2nnnn2C)c1OCc1ccccc1Cl	-22%	?
CCc1ccc(NCc2cc3cc4c(cc3n(CC(=O)Nc3ccc(OC)cc3)c2=O)OCO4)cc1	-20%	6%
CC(C)n1nc(-c2cc3cc(O)ccc3[nH]2)c2c(N)ncnc21	?	·
CC(=O)Nc1ccc(S(=O)(=O)NCc2ccc(C(=O)NCc3ccc(Cl)cc3)cc2)cc1	?	?
CCC(Oc1ccccc1)C(=O)Nc1ccccc1OCc1cc(=O)n2ccccc2n1 (stereo not drawn)	-5%	-6%
CCCn1c(SCc2nc(-c3ccc(OC)c(OC)c3)no2)nnc1-c1ccccc1	?	?
CC1CCCN(S(=O)(=O)c2ccc3[nH]c(=O)cc(C(=O)NCCc4ccc(Cl)cc4)c3c2)C1 (stereo not drawn)	-12%	-11%
COc1ccc(-c2noc(N(c3cccc(Cl)c3)c3nc(-c4ccc(OC)c(OC)c4)no3)n2)cc1OC	-13%	?
COC(=O)c1c(NC(=O)COc2ccc(Cl)cc2C)sc2c1CCCCC2	-14%	7%
O=C(Nc1c(C(=O)c2ccc(F)cc2)oc2ccccc12)c1cc(-c2ccccc2)on1	-17%	?
O=c1cc(CO)occ1O	3%	·
COc1ccc(C(=O)n2nc(-c3ccc(Cl)cc3)nc2NCc2ccco2)cc1	10%	?
Cc1ccc(CNC(=O)Cn2cc(C(=O)c3ccc(F)cc3)c(=O)c3ccc(C)nc32)cc1	-6%	?
CCc1ccccc1NC(=O)c1sc2nc3n(c(=O)c2c1C)CCC3	44%[activator]	-22%
O=C(Nc1ccc2oc(-c3cccnc3)nc2c1)c1cccc(Br)c1	-7%	14%
Cc1cccc(NC(=O)Cc2csc(COc3cccc(C)c3)n2)c1	-13%	17%
O=C(NCCS(=O)(=O)N1CCN(c2cccc(Cl)c2)CC1)C(c1ccccc1)c1ccccc1	?	2%
CCOc1ccccc1NC(=O)c1c(NCc2sccc2C)sc2c1CCCCC2	-12%	?
O=C(CN1C(=O)CCc2cc(S(=O)(=O)N3CCOCC3)ccc21)Nc1cccc(Cl)c1	-23%	11%

# (more compounds)
Compound	HTT prom inh	PMP22 txn prim
CCn1ccc2cc(S(=O)(=O)N3CCCN(C(=O)Nc4ccc(C)cc4)CC3)ccc21	-27%	3%
COC(=O)C1=C(C)NC(=O)C1(NC(=O)c1cc(OC)c(OC)c(OC)c1)C(F)(F)F (stereo not drawn)	-3%	3%
CCc1ccc(N2CCn3c2nc2c3c(=O)n(C/C=C/c3ccccc3)c(=O)n2C)cc1	-2%	-8%
CCN1CCN(CCCNC(=O)Cn2nc(C)n3c(cc4cc(C)ccc43)c2=O)CC1	4%	-17%
Cc1cc(O)cc2c1O[C@](C)(CCC[C@H](C)CCC[C@H](C)CCCC(C)C)CC2	3%	·
Cc1ccc(S(=O)(=O)N2CCc3cc(C(=O)Nc4ccc(C)c(C)c4)ccc32)cc1	-21%	?
